Mtb MbtI inh: MbtI salicylate synthase inhibition | AID 493033 | inhibition, %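 (about 17 µg/mL by stock and volumes)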 | hit rate 0.89% among 100,000 | purified MbtI enzyme, fluorescence intensity read-out;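 active means above 50% in both replicates, above 80% if mildly self-fluorescent; inactive means the rest, strongly fluorescent compounds included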;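 further: 0% = mean of negative and 100% = mean of positive controls; one replicate is shown; some compounds called inactive have numbers as strong as hits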
Target sequence (P9WFX0 whole entry, looked up): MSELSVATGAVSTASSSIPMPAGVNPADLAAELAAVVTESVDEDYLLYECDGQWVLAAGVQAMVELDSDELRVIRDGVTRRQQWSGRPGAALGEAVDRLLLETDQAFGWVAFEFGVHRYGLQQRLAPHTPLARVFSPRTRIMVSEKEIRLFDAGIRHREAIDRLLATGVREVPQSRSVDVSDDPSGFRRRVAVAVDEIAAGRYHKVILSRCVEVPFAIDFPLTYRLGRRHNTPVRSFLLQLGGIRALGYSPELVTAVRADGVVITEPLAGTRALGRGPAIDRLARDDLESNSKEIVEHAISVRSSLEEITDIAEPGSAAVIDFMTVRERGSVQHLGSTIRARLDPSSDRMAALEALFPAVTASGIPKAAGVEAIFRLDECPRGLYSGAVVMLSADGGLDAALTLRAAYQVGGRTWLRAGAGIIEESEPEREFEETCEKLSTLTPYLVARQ
MenB inh: Mtb MenB enzyme inhibition | P9WNP5 | inhibition, %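 (about 12 µg/mL by stock and volumes)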 | hit rate 0.43% among 100,000 | MenB enzyme assay, absorbance read-out; some hits fall short of the stated cut | AID 540299;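 active means mean of two replicates above 30%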;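 further: 0% = no compound and 100% = wells with inactive enzyme; the first replicate is given; strong numbers were not always called active; inactives centre near -10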
Target sequence (P9WNP5 whole entry, looked up): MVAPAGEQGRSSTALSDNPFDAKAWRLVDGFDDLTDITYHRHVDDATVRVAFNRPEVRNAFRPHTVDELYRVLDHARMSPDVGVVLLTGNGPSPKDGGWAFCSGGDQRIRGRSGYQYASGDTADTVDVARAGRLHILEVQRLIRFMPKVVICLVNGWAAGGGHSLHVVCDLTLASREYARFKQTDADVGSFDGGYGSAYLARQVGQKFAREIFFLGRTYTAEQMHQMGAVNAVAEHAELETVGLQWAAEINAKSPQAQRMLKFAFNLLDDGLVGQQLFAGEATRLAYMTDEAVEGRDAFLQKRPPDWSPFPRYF
PV pol inh: poliovirus RNA polymerase inhibition | P03300 | poliovirus polymerase elongation, fluorescence polarization; hits give low values | % elongation, % (compound at 16.7 µg/mL) | hit rate 0.66% among 150,000 | AID 588519; in the data active means % elongation below about 90%; further: some results filed as inactive read as strong as hits
PV pol inh intensity: second read-out of PV pol inh, no call of its own (marks repeat the call); % elongation; measured here: total intensity read-out; formula for this scale not given here;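 total fluorescence in place of polarization; lower means less elongation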
* marks the source's active call; other numbers are inactive results; nt = no result given; & = joins results of further samples.

SMILES | Mtb MbtI inh | MenB inh | PV pol inh | PV pol inh intensity
COc1ccc(NC(=O)C(C)NC(=O)c2ccco2)cc1NS(=O)(=O)c1ccc(F)cc1 (stereo not given) | -8 | -11 | 105 | 106
O=C(C1CC1)N1N=C(C2CCCCC2)CC1(O)C(F)(F)F (stereo not given) | -7 | -8 | 101 | 106
O=C(CSc1nc2ccccc2o1)N1N=CCC1c1ccccc1 (stereo not given) | -6 | 7 | 100 | 102
COCC(C)NC(N)=O (stereo not given) | -10 | 12 | 102 | 113
CN1C(C/C(=N\NC(N)=O)c2ccccc2)CCCC1CC(O)c1ccccc1 (stereo not given) | -2 | -14 | 102 | 104
Cc1cc2c(cc1C)CSC(c1ccccc1)SC2 | -3 | -7 | 103 | 102
O=C(CCC(=O)Nc1nc(-c2cc3ccccc3oc2=O)cs1)NCc1ccco1 | -18 | 1 | 99 | 103
CCCn1c(-c2ccc(S(=O)(=O)N3CCOCC3)cc2)csc1=Nc1ccccc1 | -13 | -19 | 101 | 108
O=C(c1cc2n(n1)CCCN(Cc1ccccc1)C2=O)N1CCCCCC1 | -20 | 3 | 101 | 103
CCc1c(CN2CCCCC2)csc1C | -4 | -23 | 102 | 103
O=C(NC1C2CC3CC(C2)CC1C3)c1cccnc1 (stereo not given) | -5 | 26 | 101 | 102
CC(C)(C)c1ccc2c(c1)CN(C(C)(C)C)CO2 | -13 | 1 | 103 | 106
CCCn1c(=S)[nH]c2c1c(=O)[nH]c(=O)n2C | 77 | -1 | 103 | 102
N#Cc1ccc(-c2ccc(Oc3ncccn3)cc2)cc1 | -1 | -9 | 100 | 100
NC(=O)NC(CC(=O)O)c1ccc(Cl)cc1 (stereo not given) | -4 | -5 | 97 | 106
COc1ccc(/C=C2/C(=N)N3C(SC)=NSC3=NC2=O)cc1 | -1 | 10 | 98 | 100
COCCn1c(C)cc(C(=O)CSc2nnc(C)s2)c1C | -1 | 1 | 98 | 101
CC(C)(C)c1cc(C(F)(F)F)c2c(=O)n(-c3ccccc3)[nH]c2n1 | 34 | -44 | 103 | 100
COc1ccc(COC(=O)c2cc(O)c3ccccc3c2O)cc1F | 58 | -10 | 102 | 106
Cc1cc(CNC(C)c2ccco2)c(C)n1-c1ccnn1C(C)C (stereo not given) | -1 | 11 | 99 | 96
Cc1cc(C)n(CCCNC(=O)CCc2ccc(S(=O)(=O)N3CCOCC3)cc2)n1 | -18 | 2 | 102 | 108
Cc1c(S(=O)(=O)N(C)c2ccccc2)sc2ccc(Cl)cc12 | -8 | -17 | 107 | 108
O=C(NC1CCCC1)c1ccc(N2CCOc3ccccc32)s1 | 130 | -40 | 99 | 101
COc1ccccc1NCc1ccccc1O | 3 | 10 | 104 | 95
c1ccc2c3c([nH]c2c1)-c1ccsc1CC3 | 24 | -43 | 101 | 103

Some values from above:
In MenB inh, O=C(NC1C2CC3CC(C2)CC1C3)c1cccnc1 (stereo not given) is listed with 26
In PV pol inh, O=C(CCC(=O)Nc1nc(-c2cc3ccccc3oc2=O)cs1)NCc1ccco1 is listed with 99
In Mtb MbtI inh, COc1ccc(COC(=O)c2cc(O)c3ccccc3c2O)cc1F is listed with 58
In PV pol inh, CC(C)(C)c1cc(C(F)(F)F)c2c(=O)n(-c3ccccc3)[nH]c2n1 is listed with 103
In PV pol inh, O=C(CSc1nc2ccccc2o1)N1N=CCC1c1ccccc1 (stereo not given) is listed with 100

The main list resumes, repeating the 4 entries before the break.
SMILES | Mtb MbtI inh | MenB inh | PV pol inh | PV pol inh intensity
Cc1c(S(=O)(=O)N(C)c2ccccc2)sc2ccc(Cl)cc12 | -8 | -17 | 107 | 108
O=C(NC1CCCC1)c1ccc(N2CCOc3ccccc32)s1 | 130 | -40 | 99 | 101
COc1ccccc1NCc1ccccc1O | 3 | 10 | 104 | 95
c1ccc2c3c([nH]c2c1)-c1ccsc1CC3 | 24 | -43 | 101 | 103
CCOc1cc(S(=O)(=O)N(C)C2CCCCC2)c(OCC)cc1-n1cnnn1 | 27 | 8 | 101 | 101
FC(F)(F)c1ccc(N2CCCCCC2)nc1 | -76 | -7 | 101 | 104
CN1CCN(c2ccc(CNC(=O)c3ccc4nsnc4c3)cc2)CC1 | 1 | -12 | 104 | 94
C(=Nc1cccc(N=Cc2ccsc2)c1)c1ccsc1 | -3 | nt | 96 | 97
Cc1ccc(-c2cc(NC(=O)CC(C)C)on2)cc1 | 1 | -14 | 100 | 103
Cc1cc(-c2ccccc2)cc(-c2ccccc2)[o+]1 | 1 | -7 | 99 | 101
CCOC(=O)c1cnc2nc(NCc3ccc(Cl)cc3)[nH]n2c1=O | -10 | -23 | 99 | 103
CC1(C)N([O-])c2ccccc2[N+]1=O | 25 | -41 | 96 | 91
O=C(CSc1nccc(-c2cccnc2)n1)Nc1ccccc1 | 6 | -11 | 99 | 102
Cc1c(C)c(C)c(S(=O)(=O)NCCCN2CCOCC2)c(C)c1C | -4 | -56 | 101 | 92
CCn1c(NC(=O)c2ccccc2)nc2ccccc21 | -27 | 11 | 100 | 101
CCOC(=O)C1=C(C)NC(SC(C)=O)=NC1c1ccc(OC(C)=O)c(OC)c1 (stereo not given) | nt | -13 | 97 | 102
O=C(NN1C(=O)c2ccccc2NC1c1cccnc1)c1ccccc1 (stereo not given) | 26 | -14 | 103 | 99
CN(C)C(=O)Cn1c(SCC(=O)NC2CCCCC2)nc2ccccc21 | -3 | -11 | 99 | 101
CCN1C(=O)/C(=C2/Sc3ccccc3N2CC)SC1=S | 6 | 12 | 115 | 126
CC(=O)NC(C)c1ccc(-c2csc(N)n2)cc1 (stereo not given) | 18 | -13 | 104 | 109
COC(=O)C1=CNC=C(C(=O)OC)C1c1ccccc1C | 117 | -19 | 103 | 105
O=C(/C=C/c1cccc(C(F)(F)F)c1)NCc1cn2ccccc2n1 | 0 | nt | 101 | 100
CC1(C)CCc2cc(-c3ccnc(=S)[nH]3)ccc2O1 | -9 | -54 | 96 | 102
CC1(C)c2ssc(=S)c2-c2ccccc2N1C(=O)CSC#N | 6 | -12 | 99 | 98
N#Cc1cc2c(nc1SCc1ccccc1Br)C1CCN2CC1 | -2 | 5 | 100 | 103
CC1=C/C(=N\NC(=O)c2ccccc2)CC1 | 26 | 27 | 102 | 103
O=C1N(Cc2ccccc2)c2cccc3cccc(c23)N1Cc1ccccc1 | 42 | -23 | 104 | 103
Nc1ccc(Oc2ccc3c(c2)C(=O)N(Cc2ccco2)C3=O)cc1 | -4 | -11 | 101 | 108
CCCc1nn(-c2ccc(Cl)cc2)cc1C(=O)Nc1ccc(Cl)cc1 | -7 | -29 | 102 | 100

3 entries already listed, ordered by length of the SMILES, smallest number first.
SMILES | Mtb MbtI inh | MenB inh | PV pol inh | PV pol inh intensity
Cc1ccc(-c2cc(NC(=O)CC(C)C)on2)cc1 | 1 | -14 | 100 | 103
Cc1cc(-c2ccccc2)cc(-c2ccccc2)[o+]1 | 1 | -7 | 99 | 101
N#Cc1cc2c(nc1SCc1ccccc1Br)C1CCN2CC1 | -2 | 5 | 100 | 103

Next part:
SMILES | Mtb MbtI inh | MenB inh | PV pol inh | PV pol inh intensity
CC(C)C(Sc1nnc(C(F)(F)F)n1C)C(=O)NC(N)=O (stereo not given) | -37 | -21 | 96 | 95
COc1ccc(NC(=O)c2ccc(Br)o2)cc1 | 0 | nt | 103 | 98
CCCN(C(=O)CCc1nc(-c2ccccc2F)no1)c1ccccc1C | -7 | -29 | 101 | 101
CC(=O)NC1=C(c2ccccc2)C(=O)c2ccccc2C1=O | 26 | -7 | 99 | 97
CCCC(C)C(=O)N1CCCCC1CC (stereo not given) | -14 | -25 | 100 | 102
C1CCC(c2nnc3n2N=C2CCCCC2S3)CC1 (stereo not given) | -30 | -19 | 104 | 108
CCc1c(C)sc(NC(=S)N2CCN(S(C)(=O)=O)CC2)c1C(=O)OC | -3 | -26 | 100 | 101
Cc1cc2c(=O)n(CC(=O)NCC(=O)N3CCCCC3)cnc2s1 | -3 | -7 | 100 | 97
Cn1cnc([N+](=O)[O-])c1Sc1ncnc2nc[nH]c12 | 4&-16 | -6&7 | 98&100 | 101&103
CC(C)C(C)NC(=O)CSc1nc2ccccc2n1C (stereo not given) | 6 | -12 | 109 | 110
CCOc1ccc2c(=O)c(Oc3ccccc3)c(C)oc2c1C | -18 | -8 | 100 | 102
COc1cccc(/C=C2\C(=O)NC(=O)N(C)C2=O)c1 | 29 | -39 | 97 | 99
CCOC(=O)C1=C(N)Oc2ccc(Cl)cc2C1C(C#N)C(=O)OCC (stereo not given) | -1 | -4 | 102 | 99
N#C/C(=C(/Oc1ccc(C#N)cc1)C(F)(F)F)c1ccccc1 | 0 | -20 | 104 | 111
COc1ccc(-n2cnc3c2C(=O)c2ccccc2C3=O)cc1 | 3 | nt | 103 | 109
CCOC(=O)C1=C(CSc2nc3sc4c(c3c(=O)n2C)CCC4)NC(=O)NC1C (stereo not given) | -5 | 4 | nt | nt
O=c1c2sc(-c3ccccc3)cc2[nH]c(=S)n1CCN1CCOCC1 | -1 | 3 | 100 | 108
Cc1nc2n(n1)C(C(=O)NCCc1ccccc1)CC(=O)N2 (stereo not given) | -7 | 13 | 99 | 102
CCCCNS(=O)(=O)c1ccccc1F | 13 | -13 | 107 | 108
O=C(COc1ccc(Cl)cc1)N1CCCc2ccccc21 | 2 | 14 | 98 | 100
C=CCNC(=O)c1cc2ccccc2o1 | 18 | 14 | 103 | 96
N#CN=C1CCCCCN1CC(N)=O | 8 | -21 | 99 | 99
O=S(=O)(/C=C/c1ccccc1)NC12CC3CC(CC(C3)C1)C2 | -5 | nt | 102 | 101
Cc1cc(NC(=O)C2Cc3ccccc3C(=O)O2)no1 (stereo not given) | -3 | 4 | 102 | 101
COc1ccc(CC(=O)OCc2nnc(C3COc4ccccc4O3)o2)cc1OC (stereo not given) | -6 | 7 | 108 | 103

The final 2 compounds of the part above are carried over, then new ones follow:
SMILES | Mtb MbtI inh | MenB inh | PV pol inh | PV pol inh intensity
Cc1cc(NC(=O)C2Cc3ccccc3C(=O)O2)no1 (stereo not given) | -3 | 4 | 102 | 101
COc1ccc(CC(=O)OCc2nnc(C3COc4ccccc4O3)o2)cc1OC (stereo not given) | -6 | 7 | 108 | 103
Cc1nc(NCC2CCCO2)c2c3c(sc2n1)CCC3 (stereo not given) | 36 | -5 | 100 | 103
CC1CN(S(=O)(=O)c2ccc3c4c(cccc24)C(=O)N3)CC(C)O1 (stereo not given) | -40 | -28 | 102 | 105
N#Cc1cc2c(=O)c3ccccc3oc2nc1-c1cc2ccccc2o1 | -7 | -2 | 109 | 117
O=C(CCOc1ccccc1F)Nc1ccc2c(c1)OCO2 | -6 | -1 | 106 | 111
CC1N=C(c2ccccc2)c2ccccc2N(CCCOc2ccc(F)cc2)C1=O (stereo not given) | -11 | -19 | 102 | 109
CN(C)S(=O)(=O)c1ccc(NC(=O)C2CCCCC2)cc1 | -11 | -10 | 102 | 101
NCC1CCN(S(=O)(=O)c2ccccc2)CC1 | -16 | 10 | 104 | 101
CSc1ncccc1C(=O)OCC(=O)N1CCCc2ccccc21 | 1 | -3 | 99 | 102
Cc1ccc(SCC(=O)NCc2ccco2)cc1 | -9 | nt | 100 | 102
O=c1nc2sc3[nH]c(=O)sc3cc-2s1 | 74 | -37 | 77 | 192
Cc1c(C(=O)/C=C/N(C)C)sc2ccccc12 | 9 | -27 | 101 | 103
NC1=NC(=O)CC(C(=O)Nc2ccc(-c3ccccc3)cc2)S1 (stereo not given) | -11 | nt | 102 | 99
O=C(CCc1nc2cccnc2n1-c1ccccc1)NCc1ccc(CN2CCOCC2)o1 | -2 | -27 | 101 | 103
Cn1c(=O)cc(OCC(=O)N2CCCC2)c2ccccc21 | -9 | -16 | 102 | 107
O=C(/C=C/Sc1nc2cc(Cl)ccc2s1)c1ccc(F)cc1 | 43 | 0 | 103 | 100
Nc1nc(C2CC(=O)OC23CCCCC3)cs1 (stereo not given) | -8 | -37 | 104 | 104
O=C(Cn1ccc2ccccc2c1=O)NC1CCCCCC1 | -1 | -7 | 103 | 102
CC(C)(C)CC(C)(C)NCc1ccccc1OCC(N)=O | -16 | 5 | 100 | 104
CCN(Cc1ccncc1)C(=O)C1CCCO1 (stereo not given) | -4 | 0 | 99 | 99
C=CCNC(=O)COc1ccc(C(C)C)cc1 | -14 | -6 | 103 | 107
CCn1c(CCC(=O)O)nc2cc(S(N)(=O)=O)ccc21 | 92 | -65 | 64* | 73*
COc1ccccc1-c1nc(N)n[nH]1 | nt | 4 | 99 | 93
O=C(O)C1CCN(C(=O)c2ccc(-c3ccccc3)cc2)CC1 | -8 | -55 | 101 | 99
Cc1cc(/C=C2/C(=N)N3C(=NC2=O)SN=C3S(=O)(=O)C(C)C)c(C)n1Cc1ccccc1 | 7 | -132 | 97 | 101
C=CCn1c(SC(C)C(=O)NC(N)=O)nnc1-c1occc1C (stereo not given) | -14 | -2 | 101 | 105

Source: PubChem
